# KCNQ2 inh: KCNQ2 channel blockers in CHO-K1 cells – cell-based, FluxOR thallium flux, B-score, primary screen (AID 2156); O88943; 20 min; hits give low values; only compounds with negative scores are shown here; some inactives read as strong as hits; B-score at 10 µM; 1.1% of 310,000 active;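 active means fluorescence ratio B-score at most minus 3 library SDs, with starting brightness B-score within 2 library SDs, cut at about -5.5 in these data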
# Target sequence (O88943 whole entry, looked up): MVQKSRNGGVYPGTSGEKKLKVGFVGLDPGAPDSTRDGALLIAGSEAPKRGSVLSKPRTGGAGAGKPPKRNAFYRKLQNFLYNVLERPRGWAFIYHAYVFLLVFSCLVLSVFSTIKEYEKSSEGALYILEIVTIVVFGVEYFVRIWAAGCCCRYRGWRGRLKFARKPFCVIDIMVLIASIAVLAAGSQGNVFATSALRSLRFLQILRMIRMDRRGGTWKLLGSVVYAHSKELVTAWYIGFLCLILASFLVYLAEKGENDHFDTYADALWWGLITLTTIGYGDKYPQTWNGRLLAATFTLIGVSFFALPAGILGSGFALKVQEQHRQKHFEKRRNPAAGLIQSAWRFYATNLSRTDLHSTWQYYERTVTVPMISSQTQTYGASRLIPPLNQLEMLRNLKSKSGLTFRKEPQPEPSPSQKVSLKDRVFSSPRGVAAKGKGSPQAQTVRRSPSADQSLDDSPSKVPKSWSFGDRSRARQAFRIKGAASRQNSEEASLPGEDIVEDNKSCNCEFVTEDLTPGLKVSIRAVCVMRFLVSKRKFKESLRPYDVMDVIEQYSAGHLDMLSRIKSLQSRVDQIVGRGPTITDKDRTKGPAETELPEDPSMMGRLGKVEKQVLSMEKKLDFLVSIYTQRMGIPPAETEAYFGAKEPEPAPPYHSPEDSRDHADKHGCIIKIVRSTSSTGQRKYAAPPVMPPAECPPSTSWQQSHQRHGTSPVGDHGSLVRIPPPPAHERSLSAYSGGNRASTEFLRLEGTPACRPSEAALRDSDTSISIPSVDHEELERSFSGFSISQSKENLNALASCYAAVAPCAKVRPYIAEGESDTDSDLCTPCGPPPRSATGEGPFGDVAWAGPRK
# KCNQ2 inh baseline: recorded beside KCNQ2 inh, whose call it bears; B-score; measured here: initial fluorescence intensity artifact check;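 brightness before thallium and not channel activity; 0 = typical well and far values either way flag optical interference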
# Active calls of the source: *; i = inactive. The list is partial, so the mix of outcomes need not match the whole.
SMILES,KCNQ2 inh,KCNQ2 inh baseline
Cc1c(/C=N/NC(=O)c2cc(C(C)(C)C)[nH]n2)c2ccccc2n1C,i,-1.3
O=C(Nc1cccc(-c2nc3ccccc3s2)c1)c1cc(-n2cnnc2)ccc1Cl,i,-0.07
NNC(=O)/C(=N/Nc1ccccc1)S(=O)(=O)c1ccc(Cl)cc1,i,1
Cc1ccc(NC(=O)c2cnccn2)c(C)c1,i,0.39
Cc1cc(C)cc(C(=O)NCc2ccc3c(c2)OCO3)c1,i,0.09
COc1ccc(N2Cc3ccccc3C2=NC(=O)c2ccc(C)cc2)cc1OC,i,2.6
Cc1cc(-c2csc(N)n2)c(C)n1CCC(C)C,i,0.64
CCn1c(C)c(C(=O)O)c2cc(OC)c3ccccc3c21,i,1.6
Cc1cccc(OCC(=O)NCC(=O)N/N=C/c2cc(Br)ccc2OCc2ccccc2)c1,i,-0.69
COC(C(=O)Nc1ccc(S(=O)(=O)Nc2ccc(F)cc2)cc1)c1ccccc1 (stereo not given),i,-0.79
COC(=O)CSc1nc2ccccc2nc1SCC(=O)OC,i,2.8
COc1ccc(NC2CCCN(C(=O)c3cccc(C(F)(F)F)c3)C2)cc1OC (stereo not given),i,1.8
CCCOc1ccc(-c2nc(SCc3ccccc3)[nH]c(=O)c2C#N)cc1OC,i,-0.05
Cc1ccc2ncnc(NCCCN3CCOCC3)c2c1,i,0.06
Cc1ccc(Sc2ncccc2O)cc1,i,0.69
CCc1ccc(NC(=O)[C@H](C)NC(=O)C2CCN(C(=O)[C@@H](N)Cc3ccccc3)CC2)cc1,i,-0.67
O=C(COC(=O)c1ccc(S(=O)(=O)N2CCc3ccccc3C2)cc1)NC(=O)NCc1ccco1,i,0.46
O=C(NCc1cccc(CNC(=O)c2ccco2)c1)c1ccco1,i,1.2
CCOC(=O)c1cnn2c(C(F)(F)F)cc(-c3ccccc3)nc12,i,0.28
CC1CCCN(C(C(=O)Nc2ccc(C(C)C)cc2)c2ccc3c(c2)OCO3)C1 (stereo not given),i,-0.92
Cc1ccc(C(=O)O/N=C/c2c(Cl)n(C)c3ccccc23)cc1,i,0.51
CCCCN1C(=O)C(=Nc2cccc3cnccc23)c2ccccc21,i,-1.8
O=C(N/N=C/c1ccco1)c1cccc(N2CCCC2=O)c1,i,1.6
CCCN1CCN(CCCNC(=O)c2cc3c(=O)n(C)c4ccccc4c3n2C)CC1,i,0.07
CC(C)[C@H](N)c1nnc(SCc2ccc(Cl)cc2)o1,i,0.63

# Continuation.
SMILES,KCNQ2 inh,KCNQ2 inh baseline
CN(C)C(CNC(=O)c1ccc(C(F)(F)F)cc1)c1ccco1 (stereo not given),i,0.02
O=C(NNC(=S)Nc1ccccc1C(F)(F)F)c1cccnc1,i,-0.09
Cc1cccc(-c2nc(CN3CCCC(C(=O)NC4CCCCCC4)C3)c(C)o2)c1 (stereo not given),-9.7*,1.8*
O=C(c1ccc(Br)cc1)c1cc([N+](=O)[O-])ccc1N1CCCCC1,i,-0.66
Cc1cc(SCC(=O)N2CCC(c3noc4ccc(F)cc34)CC2)nc2ccccc12,i,2.5
CN(C)c1nc(N(C)C)nc(N2CCCCC2)n1,i,-0.99
O=C(C[n+]1cc(Br)cc(Br)c1)c1cccc([N+](=O)[O-])c1,i,-0.04
Cc1cc(C(=O)N2CCCC2)n[nH]1,i,0.47
Cc1ccc(S(=O)(=O)N2CCOCCOCCOCCOCCOCC2)cc1,i,-0.77
CCOC(=O)N1CCC(NC(=O)CCCC(=O)O)CC1,i,-0.8
Cc1cc(C)n(CC(=O)c2ccccc2)c(=O)c1C#N,i,0.27
COc1ccccc1NC(=O)N(C1CCCC1)C1CCN(C(C)=O)CC1,i,0.78
Cc1ccc([N+](=O)[O-])cc1NC(=O)c1ccc2c(c1)OCO2,i,-0.25
Cc1ccc(NC(=O)CS(=O)CC(=O)N(CC(=O)NC2CCCC2)c2cccc(C)c2C)cc1 (stereo not given),i,0.03
Cc1cccc(C)c1OCC(=O)NNC(=O)c1ccoc1C,i,-0.8
O=C1C2C3C=CC(C3=C3CCCCC3)C2C(=O)N1Cc1ccccc1 (stereo not given),i,-0.23
Cc1ccc(CC(NC(=O)c2ccccc2)C(=O)NC(Cc2ccccc2)C(=O)O)cc1 (stereo not given),i,0.53
O=C(NCCc1nc(-c2ccccc2)cs1)c1ccc(Br)cc1,i,-0.29
Cc1ccsc1C(=O)Nc1nnc(-c2ccco2)o1,i,1
O=C(NC1CCCCC1)C(c1ccccc1)N(Cc1cccnc1)C(=O)c1csnn1 (stereo not given),i,0.27
COc1ccc2[nH]c(=O)c(CN(C(=O)NC3CCCCC3)C3CCCCC3)cc2c1,i,1.2
CC(=O)Nc1ccc(NC(=O)c2ccc(NS(=O)(=O)c3cccc4cccnc34)cc2)cc1,i,0.01
COc1ccc([N+](=O)[O-])cc1NC(=O)c1ccc(C)o1,i,0.46
Nc1nnnn1/N=C/c1ccccc1OCc1ccccc1,i,0.87
N#CCCN(CCC#N)C(=S)NC1CC2C=CC1C2 (stereo not given),i,0.59

# The results go on:
SMILES,KCNQ2 inh,KCNQ2 inh baseline
CN(C)S(=O)(=O)c1ccc(Cl)c(NC(=O)CN2CCCCCC2)c1,i,-2.5
COc1ccccc1C(=O)Nc1ccc2c(c1)nc(CN1CCN(C(C)=O)CC1)n2C,i,2
O=C(O)C1CCN(C(=O)CSc2nc3cc(Cl)ccc3c(=O)n2Cc2ccccc2)CC1,i,1.9
C=CCn1c(Cc2ccc(OC)cc2)nnc1SCC(=O)NCCc1ccccc1,i,-0.01
O=C(CSc1cn(CCNC(=O)c2ccccc2)c2ccccc12)NCC1CCCO1 (stereo not given),i,-0.03
CN(Cc1ccc2nonc2c1)Cc1nc(Cc2cccc(F)c2)no1,i,-0.64
CC1(C)CC(=O)CC(C)(C)N1OC(=O)c1ccco1,i,-0.95
CN1CCN(S(=O)(=O)c2cc([N+](=O)[O-])ccc2N/N=C/c2ccc(Cl)cc2)CC1,i,-0.29
CC1CC(C)CN(S(=O)(=O)c2ccc3c(c2)NC(=O)C(C)C(=O)N3)C1 (stereo not given),i,0.03
Cc1cc(SCC(=O)OCC(=O)N(C)c2ccccc2)nc2ccccc12,i,1.1
CC(=O)Nc1sc2c(c1C(c1ccc(Cl)cc1)N1CCOCC1)CCCC2 (stereo not given),i,0.99
COCCN1Cc2cccc(C(=O)NC(C)CCc3ccco3)c2C1=O (stereo not given),i,0.64
Cn1c(SCC(=O)c2ccccc2)nnc1-c1cnccn1,i,-0.5
COc1ccc(C[C@@H]2CN3C(=NC[C@@H]3Cc3ccc(O)cc3)N2C[C@H](C)NC(=O)CCC2CCCCC2)cc1,i,-0.81
CC/C(=C(\c1ccc(O)cc1)c1ccc(OCCN(C)C)cc1)c1ccccc1,i,-0.05
CN(C(=O)COc1ccc(C(C)(C)C)cc1)C1CCS(=O)(=O)C1 (stereo not given),i,0.18
CC(C)C(=O)Nc1ncc(Cc2ccc(Cl)cc2)s1,i,0.42
CNC(=O)c1ccc(NC(=O)c2cccc(C(F)(F)F)c2)cc1,i,1.9
Cc1ccc(C)c(NC(=O)C2C3C=CC(O3)C2C(=O)O)c1 (stereo not given),i,1.4
Cc1ccc(/C=N/NC(=O)Cn2cnc3ccccc32)cc1,i,-1.6
COc1ccc(N(CN2C(=O)c3ccccc3C2=O)C(=O)COc2ccc(Cl)cc2Cl)cc1,i,0.1
Cc1nnsc1S(=O)c1ccc(Cl)c(Cl)c1 (stereo not given),i,0.45
COc1ccc(-c2cc(C(=O)NCC3CCCO3)c3ccccc3n2)c(OC)c1 (stereo not given),i,0.2
COc1ccc(CCNC(=O)C2CC(c3cccc(F)c3)=NO2)cc1 (stereo not given),i,0.74
Cn1cnnc1SCc1ccc(C(=O)NN)cc1,i,0.8

# Continuation.
SMILES,KCNQ2 inh,KCNQ2 inh baseline
COc1ccc(CCN2C(=O)CC(C(N)=O)SC2=Nc2ccccc2)cc1 (stereo not given),i,-0.04
CN(C)c1ccc(/C=N/NC(=O)c2ccc(CN3C(=O)c4cccc5cccc3c45)cc2)cc1,i,-0.73
COc1ccc(Cl)c(Cn2c(NCc3ccccn3)nc3c2c(=O)n(C)c(=O)n3C)c1,i,0.19
Nc1c(-c2n[nH]c(=S)n2-c2ccc(Cl)cc2Cl)cnn1-c1ccccc1,i,0.53
C=CCn1c(SCC(=O)c2ccc(CNC(C)=O)o2)nc2ccccc2c1=O,i,0.5
Cc1onc(-c2ccc(Cl)cc2)c1-c1ccnc(SCC(=O)Nc2cc(Cl)cc(Cl)c2)n1,i,-0.45
CCOC(=O)c1c(NC(=O)CC)sc(C(C)=O)c1C,i,1.5
Cc1cccc(C)c1OCC(=O)N(Cc1ccc(N(C)C)cc1)C1CCS(=O)(=O)C1 (stereo not given),i,-2.6
CC(C)OC(=O)C(C)Nc1ccc(F)c(Cl)c1 (stereo not given),i,-0.03
CC(C)n1cc([C@@H]2C[C@H]3CN(Cc4cccc(Cl)c4)C(=O)[C@]34CCCN24)cn1,i,1.1
Cc1nc(SCc2nc3ccccc3[nH]2)c2oc3ccccc3c2n1,i,-1.2
CCc1cc2c(C)ccc(C)c2nc1SCC(=O)Nc1c(C)[nH]c(=O)[nH]c1=O,i,0.04
NS(=O)(=O)c1cc2c(cc1Cl)NC(C1C[C@H]3C=C[C@@H]1C3)NS2(=O)=O (stereo not given in full),i,1
O=C(N/N=C/c1ccc(-c2cccc([N+](=O)[O-])c2)o1)c1ccccc1O,i,-0.56
CCOc1ccc(OCCC(=O)N(CC)CC(=O)Nc2ccccc2C(F)(F)F)cc1,i,-1.5
O=C(COc1coc(CN2CCN(c3ccccc3)CC2)cc1=O)Nc1ccc(F)cc1,i,1.8
CNC(=S)NCc1ccc2[nH]c(C)cc2c1,i,6.1
COC(=O)c1ccc(NC(=O)CN2C(=O)CC(C)S(=O)(=O)c3ccccc32)cc1 (stereo not given),i,-1.6
Cc1ccc(C)c(-c2cc(C(=O)Nc3cccnc3)c3ccccc3n2)c1,-6.3*,-0.03*
COc1cc(OC)c(NC(=O)Cc2ccc(OC)c(S(=O)(=O)N3CCOCC3)c2)cc1Cl,i,1.3
CCOC(=O)COc1ccc2c3c(c(=O)oc2c1)CCCC3,i,0.66
CN(C(=O)c1c[nH]c(=O)cc1C(F)(F)F)c1ccc(Cl)c(Cl)c1,i,0.71
CCCN(CCC)C(=O)C1CCN(c2cc(C)nc3c(-c4ccc(OC)c(OC)c4)c(C)nn23)CC1,i,-0.02
CCOC(=O)C1=NN(c2ccc(Cl)cc2)C(c2ccccc2)CC1=O (stereo not given),i,0.84
Cc1ccc(-c2ccc(=O)n(CC(=O)NCCC(C)C)n2)cc1,i,-0.45

# Compounds shown so far containing a cyano group (3):
SMILES,KCNQ2 inh,KCNQ2 inh baseline
CCCOc1ccc(-c2nc(SCc3ccccc3)[nH]c(=O)c2C#N)cc1OC,i,-0.05
Cc1cc(C)n(CC(=O)c2ccccc2)c(=O)c1C#N,i,0.27
N#CCCN(CCC#N)C(=S)NC1CC2C=CC1C2 (stereo not given),i,0.59

# Among those listed so far, 3 have two or more sulfur atoms.
SMILES,KCNQ2 inh,KCNQ2 inh baseline
COC(=O)CSc1nc2ccccc2nc1SCC(=O)OC,i,2.8
Cc1nnsc1S(=O)c1ccc(Cl)c(Cl)c1 (stereo not given),i,0.45
NS(=O)(=O)c1cc2c(cc1Cl)NC(C1C[C@H]3C=C[C@@H]1C3)NS2(=O)=O (stereo not given in full),i,1

# Going on with the list:
SMILES,KCNQ2 inh,KCNQ2 inh baseline
Cn1c(CC(=O)Nc2ccccc2)cc2ccccc21,i,-1.5
O=C1/C(=C/c2cccnc2)SC(=S)N1Nc1ccccc1,i,0.13
CC(C)(C)SCCNC(=O)COc1ccc(Cl)cc1,i,0.17
CCOC(=O)c1sc(C(=O)OCC)c(OCCO)c1OCCO,i,0.12
CCCCn1c(N)c(N(CCOC)C(=O)c2ccc(-n3c(C)ccc3C)cc2)c(=O)[nH]c1=O,i,0.83
c1ccc(CCNc2nc(-c3ccccn3)nc3ccccc23)cc1,-8.6*,-2.1*
COc1ccc(-c2nnc3ccc(SCC(=O)N4CCCCC4)nn23)cc1OC,i,-1.2
CC(=O)c1ccc(C(=O)Nc2ccc(N3CCOCC3)cc2)cc1,i,-0.68
CC(C)=CCc1c([C@@H]2CCc3ccc(O)cc3O2)cc2c(c1O)OC(C)(C)C=C2,i,0.04
O=CNn1cnc2c(oc3nc(-c4ccccc4)cc(-c4ccco4)c32)c1=O,i,-1.9
Cc1cccc(C(=O)N2CCC(=O)N(C(COCc3cccc(Cl)c3)Cc3ccccc3)CC2)c1 (stereo not given),i,-3.9
CCC(Sc1nc2c(cnn2-c2ccccc2)c(=O)[nH]1)C(=O)OC (stereo not given),i,-0.87
C=CCn1c(SCC(=O)NCCOC)nc2scc(-c3ccco3)c2c1=O,i,1.8
CCc1ccccc1NS(=O)(=O)c1ccc2[nH]cc(C(=O)NCc3ccco3)c(=O)c2c1,i,-0.48
CCOC(=O)Cn1ccc(NC(=O)COc2ccc(F)cc2F)n1,i,-1.1
Cc1ccc(-c2csc(/C(C#N)=C(\O)CN3CCN(C(=O)c4ccco4)CC3)n2)cc1,i,2.4
CCC(C)Nc1nc(-c2cccc(OC)c2O)nc2ccccc12 (stereo not given),i,0.83
COc1ccc(C(=O)Nc2ccccc2N2CCOCC2)cc1Br,-6.3*,0.36*

# 5 of the entries above in order of the KCNQ2 inh baseline value, largest number first:
smiles | KCNQ2 inh | KCNQ2 inh baseline
Cc1ccc(-c2csc(/C(C#N)=C(\O)CN3CCN(C(=O)c4ccco4)CC3)n2)cc1 | i | 2.4
COc1ccc(C(=O)Nc2ccccc2N2CCOCC2)cc1Br | -6.3* | 0.36*
CCOC(=O)c1sc(C(=O)OCC)c(OCCO)c1OCCO | i | 0.12
CCc1ccccc1NS(=O)(=O)c1ccc2[nH]cc(C(=O)NCc3ccco3)c(=O)c2c1 | i | -0.48
c1ccc(CCNc2nc(-c3ccccn3)nc3ccccc23)cc1 | -8.6* | -2.1*

# Exported field by field: part of the list above
Cc1cccc(C(=O)N2CCC(=O)N(C(COCc3cccc(Cl)c3)Cc3ccccc3)CC2)c1 (stereo not given)
  KCNQ2 inh = i	KCNQ2 inh baseline = -3.9

CCC(Sc1nc2c(cnn2-c2ccccc2)c(=O)[nH]1)C(=O)OC (stereo not given)
  KCNQ2 inh = i	KCNQ2 inh baseline = -0.87
